LANA-H2B inh – blockers of LANA interaction with H2A/H2B – biochemical, FP readout, HTS, primary screen. Protein LANA1 (Human herpesvirus 8 type P (isolate GK18)), Q9QR71. cell-free LANA-H2A/H2B peptide, fluorescence polarization. inhibition, % (no concentration beside the values). hit rate 0.6% among 320,000; in the data active = inhibition mostly above about 10%, no sharp cut-off; inactive = mostly below about 6.7%;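 also: stock transfer was 7.5 nL into about 10 µL; 0% = median of vehicle wells and 100% = median of positive control wells; one replicate is shown; the record names a cut of 25% in any replicate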
Beta cell apopt – inhibitors of cytokine-induced beta cell apoptosis, primary screen, luminescence; INS-1E cytokine-induced death, ATP luminescence, 48 h; percent of positive-control rescue, neutral wells zero; protection from apoptosis, % (no concentration beside the values); hit rate 0.8% among 300,000; AID 435005, 2010;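 active = all replicates at 75% or more, or half of them and the mean; inconclusive = half reach 75% but not the mean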;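 also: 0% = cytokine-treated negative control wells and 100% = positive control rescue; higher means more ATP so stronger rescue from cytokine killing; wells of about 40 µL received 100 nL stock; the first replicate is given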
B2AR ag – beta2AR agonists driving receptor internalization, primary screen, cell-based, FAP fluorogen, flow cytometry; Beta-2 adrenergic receptor (Homo sapiens), P07550; Am2.2-beta2AR cells; reference of the scale not given here; response, % (test concentration not listed); hit rate 0.43% among 340,000;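 active = response above a set limit, near 3 SD of response in nonfluorescent compounds, cut at about 42% in these data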;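 also: stock transfer was 100 nL into about 11 µL; a reference agonist was the positive control; negative values mostly stem from fluorescent compounds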
Target sequence (P07550 whole entry, looked up): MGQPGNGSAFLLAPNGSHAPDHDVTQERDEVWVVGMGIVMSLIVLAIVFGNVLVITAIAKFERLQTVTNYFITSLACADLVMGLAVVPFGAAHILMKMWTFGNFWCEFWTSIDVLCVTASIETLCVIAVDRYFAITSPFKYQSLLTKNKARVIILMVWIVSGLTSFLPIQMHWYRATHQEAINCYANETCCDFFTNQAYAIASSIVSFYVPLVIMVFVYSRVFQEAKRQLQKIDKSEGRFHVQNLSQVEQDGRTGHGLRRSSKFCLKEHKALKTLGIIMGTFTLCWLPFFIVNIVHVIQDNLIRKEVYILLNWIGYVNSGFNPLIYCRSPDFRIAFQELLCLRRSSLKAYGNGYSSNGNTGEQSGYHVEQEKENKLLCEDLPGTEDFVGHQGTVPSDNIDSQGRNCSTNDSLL
Calb FLC – C. albicans growth inhibition with fluconazole, primary screen, CaCi-2 strain, Alamar Blue fluorescence; growth inhibition, % (test concentration not listed); AID 1979, 2009; C. albicans CaCi-2 (fluconazole-resistant clinical isolate) + fluconazole, 48 h; hit rate 0.57% among 300,000;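 active = most replicates above 75%; inconclusive = exactly half above 75%; inactive = most below 75%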;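 also: all wells also contain fluconazole at 8 µg/ml as a sub-toxic cotreatment; 0% = median of DMSO wells and 100% = median of geldanamycin control wells; wells of about 8 µL received 7.5 nL stock; the first replicate is given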
RanGTP-Impb inh – inhibitors of RanGTP-importin-beta interaction, primary screen, biochemical, FRET, CFP-Ran, YFP-importin-beta, homogeneous. Ran GTPase (GTP-bound) - importin-beta complex. cell-free CFP-Ran/YFP-importin-beta FRET ratio. inhibition, % (test concentration not listed). hit rate 1.1% among 300,000. AID 2216, 2009;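 active = most replicates above 15%; inconclusive = exactly half above 15%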;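 also: 0% = DMSO wells and 100% = Ran loaded with GDP instead of GTP; wells of about 40 µL received 100 nL stock; the first replicate is given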
UCH37 inh – inhibitors of human UCH37 deubiquitinase, primary screen, biochemical, Ub-AMC cleavage, fluorescence. Ubiquitin carboxyl-terminal hydrolase isozyme L5 (Homo sapiens), Q9Y5K5. purified proteasome/UCH37. inhibition, % (concentration not given with the values). hit rate 0.33% among 330,000;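 active = mean of two replicates above 20%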;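 also: 0% = compound-free wells with enzyme and 100% = wells lacking proteasome; stock transfer was 100 nL into about 20 µL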
Target sequence (Q9Y5K5 whole entry, looked up): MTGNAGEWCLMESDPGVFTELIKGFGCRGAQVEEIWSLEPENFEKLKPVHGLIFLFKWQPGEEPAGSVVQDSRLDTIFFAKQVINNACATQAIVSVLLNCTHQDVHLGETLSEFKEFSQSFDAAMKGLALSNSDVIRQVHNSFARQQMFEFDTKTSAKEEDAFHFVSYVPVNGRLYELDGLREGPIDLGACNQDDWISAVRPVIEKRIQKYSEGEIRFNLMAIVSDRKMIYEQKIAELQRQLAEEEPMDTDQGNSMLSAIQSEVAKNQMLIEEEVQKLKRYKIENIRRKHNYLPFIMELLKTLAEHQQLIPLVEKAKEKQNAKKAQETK
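Material: Human UCH37 enzyme supplied as purified proteasome complex | Schedule: 30 min preincubation with enzyme, 25 min cleavage at room temperature | Detection: AMC fluorescence 355/460 nm | Measure: % inhibition of Ub-AMC cleavage fluorescence | Controls: Wells without proteasome as full block, compound-free enzyme plus substrate as uninhibited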
A1 inh – caspase 3/7 activation in MEF A1-2A-BIM cells, primary screen, A1 inhibitor project, cell-based, luminescence, HTS. Caspase-Glo 3/7 luminescence, 3 h; percent of clofoctol response, vehicle zero. hit rate 0.066% among 330,000. caspase activation, % (test concentration not listed). AID 2462, 2010;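 active = over half of replicate activation scores above 10%, or exactly half above 10 with the replicate mean above 10; inconclusive = replicate mean below 10 yet half the replicates above 10; inactive = over half of replicates below 10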;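 also: wells of about 30 µL received 50 nL stock; many hits fall short of the cut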
T cruzi repl – inhibitors of intracellular T. cruzi growth, primary screen, luminescence, NIH3T3 host cells. AID 1885, 2009. inhibition, % (no concentration beside the values). hit rate 1.4% among 300,000. T. cruzi beta-gal in NIH3T3, 90 h;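 active = mean inhibition across valid replicates above about 55%, limit read from the data; inconclusive = mean below that limit but half or more replicates reach it; inactive = mean below it, under half of replicates reach it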;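 also: signal also drops with host cell toxicity which is not excluded here; 0% = plate median of DMSO wells and 100% = zero luminescence signal; higher percent means less beta-gal luminescence so fewer parasites; stock transfer was 50 nL into about 50 µL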
The depositor's hits bear a star; ? = inconclusive; . = not tested or not shown. No enrichment for hits; any-hit rate near 4.3%.

SMILES | LANA-H2B inh | Beta cell apopt | B2AR ag | Calb FLC | RanGTP-Impb inh | UCH37 inh | A1 inh | T cruzi repl
Cc1ncc([N+](=O)[O-])n1CC(=O)Nc1cc(Cl)ccc1Cl | -1.1 | -7 | -1 | 11 | -0.9 | 4.3 | 0.3 | 6
O=C(NCCN1CCN(C(=O)c2cccs2)CC1)C(=O)Nc1ccc(Br)cc1 | 1.1 | -3 | -1 | -5 | ? | 0.1 | 1.4 | 5
COc1ccc(CNC(=O)C(NS(=O)(=O)c2cccc3nsnc23)C(C)C)cc1 (stereo not given) | . | . | 7 | -4 | 1.4 | 1.4 | . | 8
Cc1ccc(S(=O)(=O)N2[C@@H](c3ccccc3)C(C(=O)O)=CC[C@H]2c2ccc(Cl)c(Cl)c2)cc1 | -1.7 | -4 | 7 | . | . | 4.4 | 1.1 | .
Cc1nc2ccccn2c1C(=O)N=Nc1c(O)[nH]c2ccccc12 | -7.0 | -5 | -15 | -3 | ? | 0.1 | -1.4 | -5
CC1CCCCC12NC(=O)N(CC(=O)NC1CCCc3ccccc31)C2=O (stereo not given) | -5.4 | -9 | 1 | 3 | 5.1 | 0.5 | -0.1 | -3
CC(=O)N1CCN(CC(=O)NC(=O)Nc2ccc3c(c2)OCCO3)CC1 | -2.2 | -7 | 5 | -5 | -2.3 | -1.2 | 0.4 | -11
Cc1cc(C)c(NC(=O)NC2CCCCC2)c(C)c1 | 2.6 | -1 | -3 | -28 | 3.4 | 6.4 | 0.8 | -14
COc1ccc(N2CCN(C(C)C(=O)N3CCc4ccccc43)CC2)cc1 (stereo not given) | -6.3 | 3 | -3 | 37 | 2.5 | 3.2 | -0.3 | 10
CCN(CC)CC(=O)Nc1cc(N(C)C)nc2ccccc12 | -1.7 | -4 | -1 | -8 | 6.3 | -49 | -0.9 | 20
C=CCC1c2cccc(C(=O)O)c2C(=O)N1c1cccc(OC)c1 (stereo not given) | 0.4 | -2 | -7 | 0 | 6.0 | 1.8 | -0.2 | -15
Cc1cc(C)nc(SCCC(=O)Nc2cccc3ccccc23)n1 | 1.3 | 9 | -2 | 3 | 1.3 | 1.4 | -0.3 | -4
Cc1ccccc1NCc1ccc([N+](=O)[O-])s1 | 1.2 | -7 | 4 | 7 | ? | 3.0 | 0.9 | 1
CC1=CC(C)(C)N(C(=O)CCl)c2ccccc21 | -2.7 | 0 | -5 | -12 | 1.2 | 2.1 | -0.3 | -15
CC(=O)Nc1nnc(SCC(=O)Nc2ccc(N3CCOCC3)c(Cl)c2)s1 | -11 | 1 | 7 | 12 | 7.4 | 3.9 | -0.2 | 12
CC(C)Oc1ccc(CNC(=O)Oc2ccccc2)cc1 | 5.2 | 1 | 1 | -23 | 3.1 | 1.5 | -2.4 | -22
CSCCC(NC(=O)c1ccccc1Cl)C(=O)NNC(=O)c1csc(N2CCOCC2)n1 (stereo not given) | -0.5 | -7 | -2 | . | 0.8 | 1.3 | 0.1 | -9
COc1ccc(NC(=O)C2CCCCN2N)cc1OCC(C)C (stereo not given) | -6.6 | -6 | 1 | -9 | 2.9 | 0.3 | -0.7 | -9
COc1ccc(C)cc1-n1nnnc1SCC(=O)NC1CC1 | 0.0 | -3 | 2 | . | . | 2.0 | 0.6 | .
O=C(O)CCC(=O)N1CCN(c2nc(-c3ccccc3Cl)c3cc(Br)ccc3n2)CC1 | -1.7 | -4 | -3 | 33 | 31* | -8.6 | 0.7 | 9
COC(=O)COc1cccc(NS(=O)(=O)c2cccc([N+](=O)[O-])c2)c1 | 1.1 | -3 | 2 | -3 | -1.1 | 2.9 | -0.3 | 3
Cc1cc(=O)[nH]c(N/N=C/c2c[nH]c3ccccc23)n1 | 3.4 | 0 | 0 | -4 | 5.6 | . | -1.1 | -20
CCCc1c(O)nc(SCC(=O)NCCc2ccc(OC)c(OC)c2)[nH]c1=O | 4.8 | -9 | -10 | -12 | -0.1 | 4.4 | 0.2 | -17
CCc1ccc(NC(=O)CCc2ccc(C)o2)cc1 | 3.9 | 3 | -6 | -5 | 0.9 | 1.8 | 0.7 | -4
COc1ccc2cc(S(=O)(=O)NCCCN3CCOCC3)ccc2c1 | 4.2 | 1 | 19 | -2 | 0.6 | -0.7 | -0.1 | -7
Cc1cc(C(=O)NNc2cc(Cl)ccc2Cl)no1 | -4.4 | 4 | 5 | -3 | -0.5 | 3.9 | 0.0 | 13
CCCCc1sc(-c2c(C#N)c(N)nc3c2CCCCC3)cc1[N+](=O)[O-] | 5.0 | -2 | -4 | 61 | -1.5 | 0.8 | 0.4 | 55*
CCCCc1nc(C(N)=O)c2[nH]c(=O)n(-c3ccc(OC)c(OC)c3)c2n1 | 2.2 | 3 | 2 | -2 | -3.2 | 6.2 | -1.9 | -25
O=C(NC(NCc1ccccn1)(C(F)(F)F)C(F)(F)F)c1ccco1 | -1.7 | -3 | -5 | 31 | ? | 1.6 | 1.8 | -7
COc1ccc(OCCCC(=O)NCCc2nc3ccccc3[nH]2)cc1 | 1.0 | -2 | -2 | -4 | -0.8 | 2.8 | -0.1 | -6
CC1CN(C(=S)NC(=O)c2ccco2)CC(C)O1 (stereo not given) | -1.9 | -7 | 24 | 9 | -4.2 | 1.2 | 0.3 | -15
C=CCOc1c(CNc2ncn[nH]2)cccc1OC | 2.2 | -6 | 0 | 1 | 0.7 | 2.9 | 1.0 | -9
O=C(Cn1cnc2ccccc21)N1CCc2ccccc21 | -8.2 | -4 | -2 | 7 | 1.3 | 4.0 | 0.3 | 10
O=C(c1cc(-c2ccc(O)cc2)on1)N1CCCC1 | 1.0 | -3 | -9 | 8 | 0.8 | 0.4 | -2.4 | -8
Cc1ccc(OCC(=O)N(Cc2ccco2)C2CCS(=O)(=O)C2)cc1C (stereo not given) | 3.8 | -5 | 4 | 0 | -0.4 | -0.8 | -0.2 | 6
O=C(Nc1ccccc1OC(F)F)c1cc2c(s1)CCC2 | -1.5 | 2 | 0 | -36 | -2.1 | -6.7 | -1.2 | -3
C=C(C)CSc1nc(N)c(C#N)c(-c2ccc(C)cc2)c1C#N | 5.5 | 6 | 4 | -1 | 8.5 | -1.5 | -0.7 | 42
Cc1cc(N2CCOCC2)n2ncc(-c3ccccc3)c2n1 | -2.9 | 100* | -2 | -14 | -1.6 | -7.0 | -4.7 | -5
O=C(c1cc(COc2ccc(F)cc2Cl)on1)N1CCc2sccc2C1 | -1.2 | -2 | 6 | 8 | ? | 3.6 | -0.7 | 16
O=C(CCc1ccc(O)c(O)c1)N/N=C/c1cc2c(cc1[N+](=O)[O-])OCO2 | 0.2 | 4 | 0 | -16 | -1.4 | . | 0.3 | 2
CCN(CC)CCCN1C(=O)C(O)=C(C(=O)c2ccc(C)o2)C1c1ccc(C)o1 (stereo not given) | -5.3 | -1 | -7 | -3 | -1.2 | 3.4 | -0.1 | 4
COc1ccc(-n2nnnc2SCc2nc3ccccc3s2)cc1 | -4.0 | 1 | 13 | -2 | -0.4 | -1.5 | 0.0 | -5
COc1ccc(C(=O)NC2=Nc3ccccc3N=C(C)C2c2ccccc2)cc1 (stereo not given) | 2.8 | 10 | -4 | 1 | -2.8 | 2.5 | -5.9 | -13
CC(C)(C)NC(=O)CN(C(=O)c1ccc(CN2CCOCC2)o1)c1ccc2c(c1)OCCO2 | 0.4 | -6 | 3 | -5 | 5.7 | 4.0 | -0.1 | 11
CC(C)(CNC(=O)c1cc(Cl)c(O)c(Cl)c1)N1CCCCC1 | 8.8 | 0 | 8 | -12 | -2.1 | 0.1 | 0.7 | 4
COC(=O)c1ccccc1NC(=O)Cc1nc(-c2ccccc2)sc1-c1ccc(C)cc1 | -11 | 29 | -18 | -30 | 13 | 13 | -0.5 | 40
Cc1cccc(N2CCN(C(=O)n3ccnc3)CC2)c1C | 0.0 | -3 | 2 | 3 | 1.1 | -0.2 | 0.7 | 29
Oc1c(Cl)cc(Cl)cc1/C=N/Nc1ncc(Br)cn1 | -3.3 | 86* | 0 | 3 | -1.6 | . | -0.8 | 53
O=C(NCc1ccco1)/C(=C/c1ccc(C(F)(F)F)cc1)c1nc2ccccc2[nH]1 | -5.7 | -5 | -12 | 4 | 2.7 | -123 | 0.1 | 31
COc1cc(C)nc(SCC(N)=O)n1 | -1.1 | -10 | 19 | 2 | -2.3 | 3.1 | 0.2 | 1
COC(=O)c1cc(N2C(=O)C3C4C=CC(CC4)C3C2=O)ccc1Cl (stereo not given) | -0.2 | . | 23 | 4 | -0.6 | 1.9 | -0.5 | 10
CCC/C(=N\NC(=O)c1cccc(C)c1)c1ccccc1 | 1.9 | 0 | -2 | 5 | -1.4 | . | 0.1 | -3
Cc1ccc(N2C(=O)CC(N3CCSCC3)C2=O)c(C)c1 (stereo not given) | 2.3 | 0 | -1 | -10 | 2.7 | 0.8 | -0.8 | -14
N#Cc1ccc(CSc2ncccn2)cc1 | 1.2 | . | -1 | -8 | 1.5 | 0.5 | 0.1 | 3
O=C(CN1C(=O)NC(c2ccccc2)(c2ccccc2)C1=O)NCCNCCO | -7.4 | . | -6 | -4 | 1.5 | 5.6 | -0.6 | -4
Cc1ccc2nc(C)cc(C(=O)Nc3nccs3)c2c1 | -1.4 | -3 | -6 | 7 | -7.4 | 2.1 | 1.9 | -3
Cc1ccc(N(CC(=O)NC(C)C)C(=O)CCC(=O)Nc2ccccn2)cc1 | -0.4 | -4 | -3 | -1 | 0.4 | 2.9 | 0.5 | -12
CCOC(=O)c1c(-c2cccc(C)c2)csc1NC(=O)C1CC=CCC1C(=O)O (stereo not given) | 0.8 | 10 | 4 | 57 | -0.2 | 3.5 | -1.1 | -9
Cc1cccc(CN2C(=O)[C@@H]3Cc4c([nH]c5ccccc45)C(C)(C)N3C2=O)c1 | -4.5 | . | 12 | 21 | 2.3 | -0.1 | 0.8 | 17
O=C1CSc2ccc(C(=O)NCCc3ccc(Cl)cc3Cl)cc2N1 | -6.1 | 9 | 9 | . | . | -1.9 | 0.0 | .
O=C(NCC(c1ccco1)N1CCCC1)c1cc(S(=O)(=O)N2CCOCC2)ccc1Cl (stereo not given) | -3.1 | -2 | -10 | . | . | -0.4 | 0.1 | .
O=C(NCCCn1ccnc1)C(=O)c1cn(CC(=O)N2CCCCCC2)c2ccccc12 | 1.2 | -4 | -10 | -18 | . | 3.6 | 1.4 | .

3 of the entries above in order of their number in A1 inh, rising.
mol	LANA-H2B inh	B2AR ag	RanGTP-Impb inh	UCH37 inh	A1 inh
O=C(CN1C(=O)NC(c2ccccc2)(c2ccccc2)C1=O)NCCNCCO	-7.4	-6	1.5	5.6	-0.6
COC(=O)c1cc(N2C(=O)C3C4C=CC(CC4)C3C2=O)ccc1Cl (stereo not given)	-0.2	23	-0.6	1.9	-0.5
Cc1ccc(N(CC(=O)NC(C)C)C(=O)CCC(=O)Nc2ccccn2)cc1	-0.4	-3	0.4	2.9	0.5
